# NPR1 antag = Natriuretic polypeptide receptor (hNpr1) antagonism - Primary qHTS; Atrial natriuretic peptide receptor 1 (Homo sapiens), P16066; HEK293 hNpr1 GloSensor cGMP, ANP-stimulated luminescence; Potency, µM (titrated, usually from 46.3 µM), inactives show at the top dose activity change, negative = inhibition, most hits filed as inhibitors; hit rate 1.6% among 76,000; AID 1347048, 2019; active = well fitted inhibition curve with a large enough effect; inconclusive = small, poorly fitted or top-dose-only effect; inactive = no such curve, though single readings can be large or run the other way;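 note: nearly all actives have a fitted effect of over 60% in size; nearly all hits also lower the signal before the agonist is added; a reference antagonist and vehicle were the controls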
# Target sequence (P16066 whole entry, looked up): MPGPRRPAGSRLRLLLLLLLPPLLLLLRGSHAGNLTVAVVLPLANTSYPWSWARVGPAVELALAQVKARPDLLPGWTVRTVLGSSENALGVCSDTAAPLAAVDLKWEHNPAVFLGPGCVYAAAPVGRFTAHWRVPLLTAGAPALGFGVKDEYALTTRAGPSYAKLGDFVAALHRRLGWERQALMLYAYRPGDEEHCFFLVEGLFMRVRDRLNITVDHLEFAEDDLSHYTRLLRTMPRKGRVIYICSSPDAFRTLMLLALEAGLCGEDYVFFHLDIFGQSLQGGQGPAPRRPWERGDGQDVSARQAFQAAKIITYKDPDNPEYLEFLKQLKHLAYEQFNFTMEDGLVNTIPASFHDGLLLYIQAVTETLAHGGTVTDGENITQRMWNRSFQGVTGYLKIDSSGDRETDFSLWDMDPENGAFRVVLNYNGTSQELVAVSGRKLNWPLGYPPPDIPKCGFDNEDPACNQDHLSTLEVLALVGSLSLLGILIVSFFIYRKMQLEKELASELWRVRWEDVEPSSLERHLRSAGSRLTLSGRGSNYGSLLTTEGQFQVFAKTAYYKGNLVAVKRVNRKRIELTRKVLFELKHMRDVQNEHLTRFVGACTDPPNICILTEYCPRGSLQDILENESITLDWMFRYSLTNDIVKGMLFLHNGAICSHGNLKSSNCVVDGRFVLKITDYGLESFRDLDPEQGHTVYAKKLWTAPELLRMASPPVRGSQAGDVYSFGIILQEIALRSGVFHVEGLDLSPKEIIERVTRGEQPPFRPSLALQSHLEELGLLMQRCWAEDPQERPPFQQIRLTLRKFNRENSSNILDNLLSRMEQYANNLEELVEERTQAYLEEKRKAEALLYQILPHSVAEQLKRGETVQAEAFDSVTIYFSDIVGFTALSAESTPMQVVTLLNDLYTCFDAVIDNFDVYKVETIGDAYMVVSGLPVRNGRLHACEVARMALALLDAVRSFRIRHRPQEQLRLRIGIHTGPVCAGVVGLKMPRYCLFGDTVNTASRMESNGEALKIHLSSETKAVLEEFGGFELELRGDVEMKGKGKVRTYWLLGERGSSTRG
#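 HEK293 cells stably expressing human Npr1 and cGMP GloSensor pGS-40F, loaded 2 h with 2% GloSensor reagent, given compound 30 min at room temperature. Luminescence read before and 20 min after 0.1 nM hNppA.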
# The depositor's hits bear a star; u = inconclusive; & = joins results of further samples; [ ] = another dose, or the depositor's remark. % is set by controls: 0 for no effect and ±100 for the full control effect; potency is the fitted concentration of half-maximal effect. Some of the compounds tested. The share of hits here may be higher or lower than overall.
NPR1 antag	SMILES
31.6%[activator]	COc1cccc(CN2CCC(c3nn(Cc4ccccc4)c(=O)[nH]3)CC2)c1
-19.4%	CN1CCC(OC2CCN(S(=O)(=O)c3cccc(Br)c3)CC2)CC1
3.1%	O=C(CCC[C@@H]1[C@H]2CCCN3CCC[C@@H](CN1C(=O)C1CCOCC1)[C@@H]23)NCc1ccccc1
-2.2%	Cc1ccc(N2C(=S)N[C@H]3[C@@H](O)[C@H](O)C[C@@H](C(=O)NCc4cccs4)[C@H]32)cc1Cl
-2.7%	Cc1cc(C(F)(F)F)nn1CC(=O)NCC1Cn2cccc2CN1Cc1ccccc1 (stereo unspecified)
3.7%	COc1ccc(C)cc1NC(=O)c1ccc2c(c1)N(C)C1CCCN1C2=O (stereo unspecified)
14.3%	COc1ccc(CNc2ncnc3c2CN(c2ccccc2C)C(=O)CN3C)cc1
u	COc1cc(OC)cc(C(=O)N2CCC(Cc3nc(-c4ccccc4)no3)CC2)c1
3.3%	O=C1CCN(Cc2ccc(O)cc2)CCCC(c2nc(-c3cccnc3)no2)CCN1 (stereo unspecified)
-21.9%	O=C(c1ccc2cc[nH]c2c1)N1CCC(n2cc(-c3nc(-c4ccccc4)no3)nn2)CC1
0.0%	CCc1nc(-c2c3n(c(=O)n(Cc4ccc(C#N)cc4)c2=O)CCCC3)no1
7.4%	CCN(CC)Cc1cnc2c(C(=O)N3CCCCCCC3)cnn2c1
-1.6%	COc1ccc(C(=O)N2CC[C@@H]3CN(S(C)(=O)=O)[C@@H]3C2)c(OC)n1
6.3%	Cn1ccnc1C(=O)N1CC[C@H]2C(=O)NCCCCCCN(Cc3ccncc3)[C@@H]2C1
6.1%	CCOc1cccc(CN2CC[C@@](C)(O)[C@H](N3CCCC3)C2)c1
-0.6%	CN(C)C[C@@H]1CN(C)C[C@H]1NC(=O)c1cc(Cl)ccc1F
2.2%[70.6 µM]	CN(C)C(=O)c1nc(-c2cccc(F)c2)c2cnccn12
-1.4%	CCOc1ccc(CC(=O)N2CC(c3nnc(-c4ccncc4)o3)C3(CCOCC3)C2)cc1 (stereo unspecified)
0.4%	O=C(NCc1ccccc1)C1COC2(CCN(C(=O)c3cccs3)CC2)N1C(=O)c1ccco1 (stereo unspecified)
9.3%	Cc1cc(C(F)(F)F)n(CC(C)CNC(=O)c2cn(CCN)nn2)n1 (stereo unspecified)
3.9%	O=C(NC1CCCCC1)[C@@H]1C[C@@H](O)CN1C1CCN(C(=O)c2cccs2)CC1
0.7%	CC1(CCCCN2CCOCC2)COc2ccc(C(=O)NCc3cccc(F)c3)cc2N1 (stereo unspecified)
-1.1%[70.6 µM]	O=c1[nH]ccn1C1CCN(Cc2ccc(C(F)(F)F)cc2)CC1
3.4%	O=C(Nc1ccc(=O)n2c1[C@@H]1C[C@@H](CN(C(=O)COc3ccccc3)C1)C2)c1ccccc1
1.3%	O=C([C@@H]1C[C@H](F)CN1S(=O)(=O)c1ccc2c(c1)OCCO2)N1CCCCC1
-5.5%	Cc1noc(-c2cn(C3CCN(C(=O)c4cccc(OC(F)(F)F)c4)C3)nn2)n1 (stereo unspecified)
1.1%	CCn1ccc(C(=O)N2CCC(c3noc(-c4ccncc4)n3)C2)n1 (stereo unspecified)
-24.3%	Cc1ccc(-c2cc3c(=O)n(CCNC(=O)c4nn(C)c5ccccc45)ccn3n2)c(C)c1
-9.4%[70.6 µM]	COc1cc(-c2cn(C)c(=O)n3cc(CNc4ccccc4)nc23)ccn1
6.3%	CCN1CCN(CC(O)COc2cccc(CNC3(c4ccccc4)CC3)c2)CC1 (stereo unspecified)
1.4%[70.6 µM]	COc1ccc(NC(=O)N2C[C@@H](F)[C@@H](OCc3nc4ccccc4[nH]3)C2)cc1
-4.7%	O=C(c1ccc(C2CCCNC2)cc1)N1CCN(c2ccncc2)CC1 (stereo unspecified)
-1.3%[70.6 µM]	CC(=O)N1CCNc2cc(Nc3cccc(N(C)C)c3)ncc2C1
0.0%&0.0%	COc1ccc(N2CC(C(=O)N3CCC(C(=O)NCCOc4ccccc4)C3)NC2=O)cc1 (stereo unspecified)
22.2%	COc1cccc(CN2CCC3(CC2)Cc2ccccc2NC3=O)c1
5.6%[70.6 µM]	O=c1ncn(Cc2ccccc2)c2ccc(-c3ccoc3)nc12
-12.2%[70.6 µM]	COc1ccc(-c2nc(-c3c(C)noc3C)cc3c2cc(C)n3C)cn1
3.2%	COCC1CN(C(C)=O)CC12CCN(Cc1cccc(C(F)(F)F)c1)CC2 (stereo unspecified)
5.6%	CCn1nccc1C(=O)NCCC1CCN(C(=O)Nc2ccc(C)cc2)CC1
4.6%	CCCNC(=O)N(C1CCOCC1)C1CCN(C(=O)c2ccc3ccccc3n2)CC1
4.6%	CNC(=O)c1cccc(S(=O)(=O)N2CCC3(CCCNC3)C2)c1 (stereo unspecified)
-2.3%[70.6 µM]	CCN1C(=O)COC[C@@H]1[C@H](O)c1ccc(NC(=O)c2cccs2)cc1
-0.3%	COCC(=O)NC1CCC12CCN(C(=O)Cc1cccc(F)c1)CC2 (stereo unspecified)
-1.2%	CS(=O)(=O)N1CCC(Cc2ccc(C(=O)NCCN3CCOCC3)cc2)CC1
-11.3%	COc1ccc(N2CC(c3noc(-c4ccc(F)cc4)n3)CC2=O)cc1OC (stereo unspecified)
1.2%[70.6 µM]	CC(C)NC(=O)NC[C@H]1O[C@@H](CC(=O)N(C)Cc2ccccc2)[C@H](O)[C@@H]1O
4.4%	CCc1noc(-c2ccn3c(CNC(=O)c4cc(Cl)ccc4F)nnc3c2)n1
9.7%	CCOc1ccc(C(=O)NC2CCN(C(=O)c3cc4c(=O)[nH]c(C)cn4n3)CC2)cc1
4.6%	CCCS(=O)(=O)N1CCCCC1c1nc(-c2cnccn2)n[nH]1 (stereo unspecified)
5.7%	CS(=O)(=O)Nc1ccc(C2(C(=O)NCc3ccccc3F)CCCCC2)cc1
1.7%	COc1ccc(NC(=O)CC[C@H]2NC(=O)c3ccccc3NC2=O)cn1
2.0%	CCNC(=O)N1CCCC(Cc2noc(-c3ccccc3)n2)C1 (stereo unspecified)
-6.1%[70.6 µM]	C#CCNC(=O)c1nc(-c2c(C)cccc2C)c2ccccn12
-0.4%[70.6 µM]	O=C1C[C@@H]2CCN(C(=O)NC3CCCCC3)C[C@@H]2CCN1Cc1ccc2c(c1)OCO2
-2.2%	CS(=O)(=O)N1CCCN(C(=O)c2ccoc2)CCNC(=O)CC1c1ccccc1 (stereo unspecified)
4.7%	CS(=O)(=O)N1C[C@@H]2CN(C(=O)NC3CCCC3)C[C@]2(C(=O)O)C1
-3.5%	CCc1nncn1C1CCN(C(=O)c2cc(F)ccc2F)CC1
2.0%[70.6 µM]	COc1ccc(-c2noc(C(=O)O)c2[C@@H](C)NC(=O)Nc2cccnc2)cc1
-2.7%	Cc1nonc1C(=O)N1CCc2ncnc(NCc3ccon3)c2CC1
u	O=c1[nH]c(C2CCCN(Cc3ccc(Cl)cc3)C2)nc2ccc(F)cc12 (stereo unspecified)

# Following part:
NPR1 antag	SMILES
-0.4%	CS(=O)(=O)N1CCC(OC2CCN(C(=O)Nc3ccc(F)cc3)CC2)CC1
0.0%&3.0%	COCCn1c(COc2ccc(S(C)(=O)=O)cc2)nnc1C1CC(N)C1 (stereo unspecified)
3.9%	Cc1noc(C)c1[S+](=O)([O-])N1CCn2c(nnc2-c2ccccc2)C1
3.1%	Cc1nc(C2CCCN(C(=O)C(C)(C)N)C2)cc(N2CCCC2)n1 (stereo unspecified)
-0.4%	CC(C)c1noc(-c2ccn3c(CNC(=O)c4ccccc4)nnc3c2)n1
-2.2%	OC[C@@H]1O[C@H](CNCc2cccc(Cl)c2)[C@H](N2CCN(c3ccccn3)CC2)[C@@H]1O
-23.2%	Cc1ccc(NC(=O)c2cc3n(n2)CC(c2ccc4c(c2)OCO4)OC3)cc1C (stereo unspecified)
-19.6%	CN1CCCCCC(O)c2cc(C(=O)NCc3cc(F)cc(F)c3)ccc21 (stereo unspecified)
2.7%	O=C(NCCc1noc(-c2ccccc2)n1)C1CCCC1
0.9%[70.6 µM]	O=C1c2cc(N3CCOCC3)nc(-c3ccc(CO)cc3)c2CN1Cc1ccccc1
-0.3%	COCC(=O)N1CCCC(C(=O)NCc2nncn2C2CCCCC2)C1 (stereo unspecified)
-0.3%	CCCNC(=O)N1CCCN(C(=O)C2CC2)C(c2ccccc2)CC(=O)NCC1 (stereo unspecified)
5.1%	COc1ccc(C(=O)N2CCC3(CC2)OC(=O)N(Cc2ccccc2)C3(C)c2cccnc2)cc1 (stereo unspecified)
-20.2%	Cc1nc2cccnc2n1CC1CCCN(S(=O)(=O)Cc2ccccc2Cl)C1 (stereo unspecified)
10.8%	O=C(c1cccc(OC(F)F)c1)N1CC[C@H](N2CCOCC2)[C@H](CCCO)C1
1.1%	O=C1CCCN1CCCN1C(=O)[C@H]2CN(Cc3ccc(Cl)cc3)C[C@H]2C1=O
1.0%	COCCNC(=O)c1ccc2c(c1)N(C)C(CC(=O)N1CCCCC1)CO2 (stereo unspecified)
-1.4%	Cc1ccc(C2Cn3nnc(-c4noc(-c5ccccc5)n4)c3CO2)cc1 (stereo unspecified)
-19.8%	CN(Cc1cnccn1)c1ccc(-c2nc(CCCc3ccccc3)no2)cn1
2.2%	CCn1ccc(C(=O)N2CCC3(CC2)CCC3(O)CC)n1 (stereo unspecified)
-2.0%	CCOc1ccccc1CN1CCc2n[nH]c(=O)n2CC1
-1.8%	Cc1cccc(OCC(=O)N2CCC(n3cc(-c4nc(-c5ccccc5)no4)nn3)C2)c1 (stereo unspecified)
u	COc1ccc(C(=O)N2CCN(c3cc(-c4ccc(F)cc4)[nH]n3)CC2)cc1
2.4%	CC(C)CN1CCN(C(=O)[C@@H]2CN(S(C)(=O)=O)C[C@H]2c2ccncc2)CC1
-5.3%	O=C(NCc1ccc(F)cc1)N1CCC(c2noc(-c3ccncc3)n2)C1 (stereo unspecified)
3.7%	O=C(OCc1ccccc1)N1CCC2(C1)C(=NC1CCCC1)NC(=O)N2c1cccnc1 (stereo unspecified)
-5.6%	CC(=O)c1ccc(N2CCN(C(=O)c3nnn4c3COC(c3ccc(F)cc3)C4)CC2)cc1 (stereo unspecified)
-0.6%	Cn1cnc(C(=O)N2CCC(OC3CCN(S(C)(=O)=O)CC3)CC2)c1
-0.2%	CN1CCN(C(=O)c2ccc(N3CC4CC(C3)[C@H]3CCCC(=O)N3C4)nc2)CC1 (stereo partly specified)
0.9%	COCCNC(=O)c1ccc(N2CC3CC(C2)[C@H]2CCCC(=O)N2C3)nc1 (stereo partly specified)
-13.0%	Cc1ccc(OCC(=O)NCCC2CCN(C(=O)Nc3ccc(F)cc3)CC2)cc1
-27.4%[70.6 µM]	Cn1c(C(=O)N2CCN(c3ccccn3)CC2)nc2nc(-c3ccccc3)c(Cl)cc21
1.3%	O=C1CCCN1CC1CCN(C(=O)c2ccc(N3CCC(O)CC3)nc2)CC1
-15.0%	COCCN1C(=O)N(C2Cc3ccccc3C2)C(=O)C12CCN(Cc1ccc(CO)o1)CC2
0.0%[70.6 µM]	COc1cccc(C(=O)N(C)Cc2cccc(C(F)(F)F)c2)c1
-7.0%	COc1ccccc1N1CCN(C(=O)CN2C(=O)NC(c3ccc(Cl)cc3)C3=C2COC3=O)CC1 (stereo unspecified)
-2.4%	CC1=NS(=O)(=O)N(Cc2cccc(C)c2)C=C1C(=O)O
-3.1%[70.6 µM]	Cn1nc(C2CCN(C(=O)Nc3ccccc3)CC2)[nH]c1=O
-3.6%[70.6 µM]	O=C1NC2(CCN(Cc3ccc(F)cc3)CC2)Oc2ccccc21
-1.7%	COc1ccccc1CNC(=O)C1CCN(C(=O)c2ncn3c2COC(c2ccc(F)cc2)C3)CC1 (stereo unspecified)
-14.2%	COc1ccc2c(c1)CCc1c-2n[nH]c1C(=O)N1CCc2c(nc3cc(-c4ccccc4)[nH]n3c2=O)C1
5.6%[70.6 µM]	COc1ccc(-c2ccnc(-c3nnc(C)n3CCN(C)C)c2)cc1OC
-0.8%	Cc1oc2c(c1C(=O)N1CCN(C3CCCC3)CC1)CN(Cc1cccc(F)c1)CC2
11.2µM*	CCNc1cc(N2CCC(CCC(=O)N3CCN(c4cccc(OC)c4)CC3)CC2)ncn1
4.1%	O=C1CCC(C(=O)N2CCCn3ccnc3C2c2ccccc2)=NN1 (stereo unspecified)
4.4%	COCCC1(NS(C)(=O)=O)CCN(C(=O)Nc2ccc3c(c2)OCCO3)CC1
-5.4%[70.6 µM]	CC(C)CCNC(=O)c1cnc2n1CCN(Cc1c[nH]c3ccccc13)CC2
0.1%	CN(C)S(=O)(=O)N1CCC(N2C(=O)C(OCC3CC3)C23CCCCC3)CC1 (stereo unspecified)
5.3%	COc1ccc(N2CCC(NC(=O)c3ccc4nc[nH]c4c3)C2=O)cc1 (stereo unspecified)

# 3 entries from above, with tabs:
mol	NPR1 antag
COCCC1(NS(C)(=O)=O)CCN(C(=O)Nc2ccc3c(c2)OCCO3)CC1	4.4%
COc1ccc(-c2ccnc(-c3nnc(C)n3CCN(C)C)c2)cc1OC	5.6%[70.6 µM]
O=C1CCC(C(=O)N2CCCn3ccnc3C2c2ccccc2)=NN1 (stereo unspecified)	4.1%

# Reformatted with tabs: part of the list above
Structure	NPR1 antag
Cc1ccc(OCC(=O)NCCC2CCN(C(=O)Nc3ccc(F)cc3)CC2)cc1	-13.0%
Cn1c(C(=O)N2CCN(c3ccccn3)CC2)nc2nc(-c3ccccc3)c(Cl)cc21	-27.4%[70.6 µM]
O=C1CCCN1CC1CCN(C(=O)c2ccc(N3CCC(O)CC3)nc2)CC1	1.3%
COCCN1C(=O)N(C2Cc3ccccc3C2)C(=O)C12CCN(Cc1ccc(CO)o1)CC2	-15.0%
COc1cccc(C(=O)N(C)Cc2cccc(C(F)(F)F)c2)c1	0.0%[70.6 µM]
